Bioassay records deposited in PubChem BioAssay by several laboratories.
Mtb hypoxia inh: PubChem AID 1159583. M. tuberculosis hypoxia-regulated fluorescent reporter, fluorescence. fluorescence inhibition, % (concentration not given with the values). actives 0.1% (n = 300,000);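 active = 35 to 45% if threefold the growth effect, above 45% if 1.5-fold the growth effect; inactive = the rest, general growth blockers included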;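 also: wells of about 50 µL received 100 nL stock; 0% = vehicle wells and 100% = reference inhibitor wells; whole bacteria with a GFP reporter of the hypoxia response; strong numbers were not always called active; many hits fall short of the cut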
Autofluor counter: compound fluorescence in toxin protease inhibitor counterscreen | actives 3.1% (n = 360,000) | fluorescence intensity (test concentration not listed) | compound autofluorescence counterscreen, microsphere flow cytometry; active compounds read high;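 active = at least 3 SD above the mean of all compounds, about 16000 in these data; inconclusive = too few beads counted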;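 also: 100 nL of 1 mM stock went into each well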
Sa ugtP lethal: growth inhibition of ugtP-null S. aureus, primary screen, RN4220 ugtP deletion, OD600; growth inhibition, % (concentration not given with the values); actives 0.54% (n = 330,000); 16 h; some inactives read as strong as hits;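 active = z-score under -3 and OD600 up to 0.15 on both plates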;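 also: plate controls were untreated wells for no effect and antibiotic for full effect; wells of about 80 µL received 100 nL stock; the first replicate is given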
PrP 5UTR inh: inhibition of PrP 5' UTR reporter expression; cell-based PrP 5' UTR mRNA reporter, plate reader; inhibition, % (test concentration not listed); actives 0.35% (n = 340,000); AID 488862, 2010;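 active = every replicate at 50% or more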;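 also: 0 = median of the neutral control wells; tested in H4 reporter cells; numbers are from one replicate; inactives centre near -14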
BJeLR lethal: MLPCN primary cell-based screen for lethality selective to Ras in HRASV12 cells; BJeLR (HRASV12) viability, CellTiter-Glo ATP luminescence, 48 h; reference of the scale not given here; inhibition, % (test concentration not listed); actives 0.17% (n = 300,000);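 active = replicate mean above 50%; inconclusive = above 50% but judged a plate artefact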;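 also: 50 nL library stock added to about 25 µL; numbers are from one replicate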
RN4220 kill: growth inhibition of S. aureus RN4220, primary screen, OD600. AID 1259311, 2017. inhibition, % (concentration not given with the values). actives 0.33% (n = 330,000). 16 h;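 active = z-score of -3 or lower and OD600 up to 0.18 on both plates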;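 also: plate controls were untreated cells for no effect and reference antibiotic for full effect; stock transfer was 100 nL into about 80 µL; one replicate is shown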
Mtb hypoxia inh growth: also measured in Mtb hypoxia inh; calls as there; growth inhibition, %; measured here: M. tuberculosis growth (absorbance);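 0% = vehicle and 100% = reference antibiotic; read after six days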
The depositor's hits bear a star; ? = inconclusive; . = not tested or not shown; & = joins results of further samples.

SMILES	Mtb hypoxia inh	Mtb hypoxia inh growth	Autofluor counter	Sa ugtP lethal	PrP 5UTR inh	BJeLR lethal	RN4220 kill
Cc1ccc(C(=O)COC(=O)CCN2C(=O)C3C4CC(C(Br)C4Br)C3C2=O)cc1 (stereo not given)	4	1	11540	12	-11	-1	14
O=C(CSc1nccc(-c2cccs2)n1)Nc1ccc(F)c(Cl)c1	5	-1	4185	89*	-9	-11	83
O=C(CSc1n[nH]c(=O)[nH]c1=O)Nc1ccc(C(=O)O)cc1	9	4	4596	5	-24	3	4.8
O=C1CC(c2cccc([N+](=O)[O-])c2)c2ccc3ccccc3c2N1 (stereo not given)	11	4	9184	-20	-5	-7	4.6
COc1ccc(S(=O)(=O)N2CCC(N3CCN(c4ccccc4)CC3)CC2)cc1	-5	14	.	2	.	1	10
CC(=NNS(=O)(=O)c1c(C)cc(C)cc1C)c1ccncc1	4	-3	.	7	.	.	-0.4
Cc1ccc(/C=C/C(=O)NCc2ccco2)o1	.	.	.	-3	.	3	7.6
Cc1ccc(CNC(=O)NCc2ccccc2)cc1	2	6	2476	13	-17	1	2.8
Cc1ccc(NC(=O)Nc2cccc(C)n2)cc1	22	9	3921	7	-57	-2	4.2
CC(Sc1ccc2ccccc2n1)C(=O)O (stereo not given)	3&10	6&7	1977	-3&-3	-7	0&9	5.1&5.0
Cc1ccc(NC(=O)c2cc(-c3ccco3)on2)cc1C	1	5	11692	-3	-12	4	-1.0
CC1=Nc2ccccc2/C1=C/c1sc(=O)n(CC(=O)N2CCCC2)c1O	-3	12	8746	-13	-1	-1	-0.4
CC1Cc2cc(/C(O)=C3/C(=O)C(=O)N(CCN4CCOCC4)C3c3cccc(O)c3)ccc2O1 (stereo not given)	5	8	6072	-1	-11	-2	3.9
O=C(Nc1cccc(Cl)c1Cl)c1ccncc1	.	.	4609	2	-5	-7	-1.1
COc1ccc(N2C(=O)c3ccccc3C2=O)cc1	11	8	3863	5	6	4	7.0
NC(=S)NN=C1CCCCC12CCCC2	10	8	3662	3	-1	.	3.1
O=S(=O)(c1ccc2[nH]ccc2c1)N1CCCCCC1	12	9	5225	6	-18	-10	5.2
COc1ccc(/C(O)=C2\C(=O)C(=O)N(Cc3ccco3)C2c2cc(OC)ccc2OC)cc1 (stereo not given)	-1	1	11143	17	3	-3	7.6
Cc1ccc(Cl)cc1N1CCN(C(=O)Cc2csc(Nc3nc(=S)[nH]c4ccccc34)n2)CC1	.	.	4297	.	5	-4	.
Cc1ccc(C)c(OCC(=O)NNC(=O)CSC(=S)N2CCCC2)c1	1	9	?	2	-8	1	1.0
Clc1ccccc1-c1nn2c(Cn3cnc4ccccc43)nnc2s1	-1	3	4096	-1	-4	3	3.0
COc1cccc(-c2nc(N3CCCC3)c3ccccc3n2)c1O	9	-4	2362	3	-7	-2	2.0
O=C(Nc1ccc(Cl)cc1)N1CCC(c2nc(-c3cccs3)no2)CC1	4	3	24323*	-4	-41	-3	2.6
CN(C(=O)Cn1cc(C(F)(F)F)ccc1=O)c1c(N)n(Cc2ccccc2)c(=O)[nH]c1=O	2	9	3366	3	-9	-2	1.1
CC(SCc1ccccc1)C(=O)Nc1ccccc1F (stereo not given)	3	-4	.	14	-6	-2	5.9
O=C(CCN1C(=O)CSc2ccccc21)Nc1cccc(C(F)(F)F)c1	-1	6	3801	-4	-14	.	4.4
COc1ccc(CNc2cc(C)nc3ccc(OC)cc23)cc1	-12	-5	6492	-1	-23	-2	-2.9
COc1ccc(S(=O)(=O)NCC(c2ccc3c(c2)OCO3)N2CCOCC2)cc1 (stereo not given)	10	-3	?	7	-23	0	3.3
CCN(CC)c1ccc(/C=C(\C#N)C(=O)c2ccc(Br)cc2)cc1	5	3	97679*	-13	-19	-19	-10
COc1ccc(C(=O)Oc2ccc(C=NNC(=O)c3ccccc3OC)cc2[N+](=O)[O-])cc1	1	1	.	1	.	.	-2.8
Cc1cc(C(=O)CC#N)c(C)n1CC(F)(F)F	.	.	2632	6	-22	6	2.6
O=C(NCc1ccco1)c1c(F)c(F)c(F)c(C(=O)NCc2ccco2)c1F	12	9	3063	13	-18	10	3.4
CC1CN(C(=O)N2c3ccccc3Sc3ccccc32)CC(C)O1 (stereo not given)	8	8	1922	-2	10	-2	7.3
Cc1ccc(NC(=O)c2cc(S(=O)(=O)N(C)C)ccc2N2CCCC2)cc1S(=O)(=O)N(C)C	-5	1	5258	-2	2	0	3.9
Cc1nn(CC#N)c(=O)n1-c1ccc(Cl)cc1	-4	4	3045	10	-12	-21	15
N#CCC(=O)Nc1ccc(C(=O)Nc2cccc(S(N)(=O)=O)c2)cc1	1	-4	4587	-2	-11	18	5.0
c1ccc2c(c1)CSc1ccccc1C2C1=NCCN1 (stereo not given)	11	8	2565	6	-13	-10	-5.1
CCOC(=O)C1CCCN(C2CC(=O)N(c3cccc(C(F)(F)F)c3)C2=O)C1 (stereo not given)	7	7	23785*	7	-22	7	6.2
Cc1ccc(S(=O)(=O)N2CCN(S(=O)(=O)N3CCCCCC3)CC2)cc1	2	-1	2040	12	-5	2	3.3
C=CCn1c(NCc2ccc(OC)cc2O)nc2ccccc21	-8	-4	4051	-3	-30	12	0.7
O=C(Cn1cc(C(F)(F)F)ccc1=O)NN=Cc1ccc(Cl)cc1	15	4	.	-3	.	.	2.3
C/C(=N\NC(=O)CNC(=O)c1ccco1)c1ccc(Br)cc1	.	.	3947	.	-33	9	.
O=C(NCc1ccc2c(c1)OCO2)c1cc(=O)[nH]c2ccccc12	0	10	4110	1	-20	-11	5.2
O=C1CC(c2ccc(F)cc2)Cc2nc(NCC3CCCO3)ncc21 (stereo not given)	-4	5	5418	-2	-5	3	4.9
CCn1cc(C2=NOC(C(=O)Nc3c(C)nn(Cc4ccc(F)cc4)c3C)C2)c(C)n1 (stereo not given)	-8	1	5010	-15	-6	-6	1.0
Cc1ccc(S(=O)(=O)N2CCCCC2)cc1C(=O)NCCN1CCOCC1	12	3	3411	0	-27	.	-3.1
Cc1cc(N=Nc2ccc3ccccc3c2)ccc1O	9	-13	3933	100*	-72	25	100*
CCOC(=O)c1cc2c(nc1C)-c1cc(Cl)cc(Cl)c1OC2O (stereo not given)	15	-2	2084	-9	-21	.	1.9
CCCNc1nc2c(c(=O)[nH]c(=O)n2C)n1Cc1ccc(F)cc1	-3	1	5572	3	7	-1	-1.5
CC1(C(=O)O)Cc2ccccc2C(=O)O1 (stereo not given)	-7	10	10747	-2	-25	-10	-2.3
NC(=O)c1cc([N+](=O)[O-])ccc1NCCc1ccccc1	2	1	3728	3	-13	-2	2.8
CC(=O)N/C(=C\c1ccccc1)C(=O)OC(C)C(=O)Nc1ccccc1F (stereo not given)	10	13	5568	8	-35	.	1.2
C=C(C)CN(CC)C(=O)CSc1nc(O)cc(=O)n1C1CCCC1	2	2	3885	3	-14	-1	3.6
CCc1cccc(NC2c3ccccc3C(=O)N2c2ccc(C)cn2)c1 (stereo not given)	18	21	5563	24	-39	-2	-13
CNC(=O)c1ccc(Nc2nc(-c3ccccc3)nc3ccccc23)cc1	10	1	4008	-12	-20	8	-10
COC(=O)c1ccccc1S(=O)(=O)N(CCCO)Cc1cc2c(C)ccc(C)c2[nH]c1=O	15	8	22748*	3	-10	10	4.1
O=C(COc1ccc(Cl)cc1)NCCCNC(=O)c1ccccn1	8	3	4963	14	-10	2	2.8
CCOC(=O)c1c(C2CC2)csc1NC(=O)COC(=O)c1cnc(Cl)c(Cl)c1	15	9	2129	4	-19	-5	8.7
COc1ccc(-c2ccc(SCC(=O)NCc3ccco3)nn2)cc1	1	5	24470*	0	-27	1	-5.0
CC(=NNC(=O)CNc1cccc(Cl)c1C)C1CC1	3	4	.	7	.	.	2.5

Looked up above.
Reading of COC(=O)c1ccccc1S(=O)(=O)N(CCCO)Cc1cc2c(C)ccc(C)c2[nH]c1=O under RN4220 kill: 4.1
Reading of Cc1ccc(S(=O)(=O)N2CCN(S(=O)(=O)N3CCCCCC3)CC2)cc1 under BJeLR lethal: 2
Reading of Cc1cc(C(=O)CC#N)c(C)n1CC(F)(F)F under PrP 5UTR inh: -22

Carrying on.
SMILES	Mtb hypoxia inh	Mtb hypoxia inh growth	Autofluor counter	Sa ugtP lethal	PrP 5UTR inh	BJeLR lethal	RN4220 kill
O=C(CC12CC3CC(CC(C3)C1)C2)NCO	.	.	2097	8	-8	-4	0.3
CCOC(=O)c1csc(COc2ccccc2Cl)n1	3	6	5286	8	-23	3	5.9
O=C(NC(=S)Nc1ccc(N2CCCCC2)cc1)c1cccs1	2	13	10363	-21	-27	-2	1.3
COC(=O)c1ccc2c(=O)[nH]c(COC(=O)c3cccc(S(=O)(=O)N4CCOCC4)c3)nc2c1	-5	6	5424	-1	-24	5	-2.5
Cc1nnc(NC(=O)c2ccc3c(c2)C(=O)N(CC2CCCO2)C3=O)s1 (stereo not given)	-6	4	9787	5	-36	6	7.5
O=C(c1ccc(F)cc1)C1CCN(C(=O)N2CCOCC2)CC1	10	2	11934	2	-13	-12	6.3
COc1ccc(C(=O)OC2C[C@H]3CC[C@@H](C2)N3O)cc1OC (stereo not given in full)	5	0	3013	0	-23	-10	0.3
CCn1nc(C(=O)OCC(=O)NC(C)C)c2ccccc2c1=O	7	0	4227	8	-22	0	4.6
COc1ccc(NC(=O)CSc2nnc(-c3ccncc3)n2C)cc1	3	3	4265	-1	-23	8	1.5
CCN(C(=O)C1CCCN(c2ncnc3c2nc2n3CCCCC2)C1)c1cccc(Cl)c1 (stereo not given)	-6	1	5270	6	-5	5	2.9
CCSc1ccccc1C(=O)Nc1cc(C)on1	7	11	8927	3	-1	-1	5.4
COc1ccc(C(=O)N/N=C/C(Br)=C/c2ccccc2)cc1	.	.	2575	.	-31	-3	.

Six of these compounds in another layout:
| SMILES | Mtb hypoxia inh | Mtb hypoxia inh growth | Autofluor counter | Sa ugtP lethal | PrP 5UTR inh | BJeLR lethal | RN4220 kill |
| --- | --- | --- | --- | --- | --- | --- | --- |
| COc1ccc(C(=O)OC2C[C@H]3CC[C@@H](C2)N3O)cc1OC (stereo not given in full) | 5 | 0 | 3013 | 0 | -23 | -10 | 0.3 |
| CCn1nc(C(=O)OCC(=O)NC(C)C)c2ccccc2c1=O | 7 | 0 | 4227 | 8 | -22 | 0 | 4.6 |
| COc1ccc(NC(=O)CSc2nnc(-c3ccncc3)n2C)cc1 | 3 | 3 | 4265 | -1 | -23 | 8 | 1.5 |
| CCN(C(=O)C1CCCN(c2ncnc3c2nc2n3CCCCC2)C1)c1cccc(Cl)c1 (stereo not given) | -6 | 1 | 5270 | 6 | -5 | 5 | 2.9 |
| CCSc1ccccc1C(=O)Nc1cc(C)on1 | 7 | 11 | 8927 | 3 | -1 | -1 | 5.4 |
| COc1ccc(C(=O)N/N=C/C(Br)=C/c2ccccc2)cc1 | . | . | 2575 | . | -31 | -3 | . |

Next part:
SMILES	Mtb hypoxia inh	Mtb hypoxia inh growth	Autofluor counter	Sa ugtP lethal	PrP 5UTR inh	BJeLR lethal	RN4220 kill
O=C(c1ccc(S(=O)(=O)N2CCCC2)cc1)N(Cc1ccco1)C1CCS(=O)(=O)C1 (stereo not given)	4	15	3669	3	-16	19	1.2
Cc1ccc(-c2nc(NC(=O)CSc3nnc(C)s3)ns2)cc1	.	.	4540	12	-20	-3	1.4
Cc1cc(Nc2cccc(Cl)c2C)n2ncnc2n1	.	.	4518	-2	-2	-8	2.5
Cc1cccc(C)c1NC(=O)CS(=O)CC(=O)NC1CCN(Cc2ccccc2)CC1 (stereo not given)	5	5	3857	-1	-10	-7	4.9
CSc1ccc(C(=O)N2CCC(n3nccc3NC(=O)C3CC3)CC2)cc1	7	2	.	17	-15	-5	9.0
COc1ccc(Cn2c(=O)oc3ccccc32)cc1F	10	4	3496	6	-33	1	8.8
COc1cc(NC(C)CCCN)c2ncccc2c1Oc1ccccc1 (stereo not given)	3	9	2135	-21	-13	9	3.0
O=C(COc1ccccc1)Nc1cccc(S(=O)(=O)N2CCCC2)c1	3	-1	.	1	-14	.	1.0
COc1ccc(N2CCN(C(=O)c3ccc(F)cc3)CC2)c([N+](=O)[O-])c1	1	12	4324	10	-11	0	0.1
CCN(Cc1ccc(Cl)s1)C(=O)c1cccc(OCc2c(C)noc2C)c1	2	6	5105	4	-5	.	8.6
COc1cc(S(=O)(=O)N2CCCCC2)ccc1NC=O	2	15	.	-4	-23	12	-8.5
Clc1cccc(Nc2c3c(nc4ncnn24)CCC3)c1	5	10	10581	-1	.	-8	2.6
COc1ccc(NC(=O)COC(=O)CCSc2ccccc2)cc1OC	10	4	?	1	-19	.	1.4
